PrP 5UTR inh: suppresses PrP 5' UTR mRNA reporter expression. AID 488862. inhibition, % (test concentration not listed). hit rate 0.35% among 340,000. cell-based PrP 5' UTR mRNA reporter, plate reader;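 active means every replicate at 50% or more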;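 further: 0 = median of the neutral control wells; tested in H4 reporter cells; numbers are from one replicate; inactives centre near -14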
Sa ugtP lethal: kills S. aureus RN4220 lacking UgtP; S. aureus RN4220 ugtP deletion, OD600 growth, 16 h; some inactives read as strong as hits; growth inhibition, % (no concentration beside the values); hit rate 0.54% among 330,000; AID 1259309;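 active means z-score under -3 and OD600 up to 0.15 on both plates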;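 further: plate controls were untreated wells for no effect and antibiotic for full effect; wells of about 80 µL received 100 nL stock; the first replicate is given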
Mtb hypoxia rep: reduces hypoxia-regulated biosensor signal in M. tuberculosis. fluorescence inhibition, % (no concentration beside the values). M. tuberculosis hypoxia-regulated fluorescent reporter, fluorescence. AID 1159583. hit rate 0.1% among 300,000;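 active means 35 to 45% if threefold the growth effect, above 45% if 1.5-fold the growth effect; inactive means the rest, general growth blockers included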;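 further: wells of about 50 µL received 100 nL stock; 0% = vehicle wells and 100% = reference inhibitor wells; whole bacteria with a GFP reporter of the hypoxia response; strong numbers were not always called active; many hits fall short of the cut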
BJeLR viability: BJeLR cell viability loss; BJeLR (HRASV12) viability, CellTiter-Glo ATP luminescence, 48 h; reference of the scale not given here; inhibition, % (test concentration not listed); hit rate 0.17% among 300,000; AID 1554;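 active means replicate mean above 50%; inconclusive means above 50% but judged a plate artefact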;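 further: 50 nL library stock added to about 25 µL; numbers are from one replicate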
Bead autofluor: flagged as autofluorescent in microsphere protease counterscreen. compound autofluorescence counterscreen, microsphere flow cytometry; stronger effect = higher value. fluorescence intensity (test concentration not listed). hit rate 3.1% among 360,000;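 active means at least 3 SD above the mean of all compounds, about 16000 in these data; inconclusive means too few beads counted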;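 further: 100 nL of 1 mM stock went into each well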
RN4220 kill: kills Staphylococcus aureus RN4220 | S. aureus RN4220 growth, OD600, 16 h | inhibition, % (no concentration beside the values) | hit rate 0.33% among 330,000 | AID 1259311;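 active means z-score of -3 or lower and OD600 up to 0.18 on both plates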;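 further: plate controls were untreated cells for no effect and reference antibiotic for full effect; stock transfer was 100 nL into about 80 µL; one replicate is shown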
Mtb hypoxia rep growth: also measured in Mtb hypoxia rep; calls as there; growth inhibition, %; measured here: M. tuberculosis growth (absorbance);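 0% = vehicle and 100% = reference antibiotic; read after six days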
* hit, by the source's call; ? = inconclusive; / = no result given. Hits appear at their usual frequency. Share with any hit: about 4%.

# | molecule | PrP 5UTR inh | Sa ugtP lethal | Mtb hypoxia rep | Mtb hypoxia rep growth
1 | Cc1ccc2[nH]c(=O)c(CN(CC3CCCO3)C(=O)c3ccncc3)cc2c1 (stereo unspecified) | -10 | 13 | 18 | 4
2 | O=C(Nc1ccc2oc(-c3ccccc3)nc2c1)c1ccc2c(c1)OCCO2 | -24 | 14 | 7 | 14
3 | O=C(Nc1ccc(NC(=O)C2CC2)nc1)c1ccccc1F | -40 | 7 | 6 | 8
4 | CCC(C)NC(=O)c1cnn2c1NC(c1ccc3c(c1)OCO3)CC2C(F)(F)F (stereo unspecified) | -15 | -5 | -1 | 9
5 | S=C(NCc1ccccc1)N1CCCCC1 | -15 | -2 | 12 | 5
6 | Cc1nn(-c2cccc(Cl)c2)nc1C(=O)O | -1 | 11 | 10 | 7
7 | Oc1ccc(C=NNC(=S)Nc2cccnc2)c(O)c1O | / | -3 | 19 | 4
8 | O=C(NCCc1ccccc1)C(=O)NCC1OCCN1S(=O)(=O)c1cccs1 (stereo unspecified) | -10 | -1 | 4 | 7
9 | C=CCSC1=N/C(=C\c2ccc(C)o2)C(=O)S1 | -20 | / | / | /
10 | Cn1c(=O)[nH]c(=O)c2c1nc(NCCO)n2CCOc1ccccc1 | 2 | 3 | -2 | 2
11 | O=C(NCCSc1ncc(-c2ccc(F)cc2)[nH]1)c1ccc2c(c1)OCO2 | -1 | 5 | 5 | 1
12 | N#CCC(=O)Nc1ccc(C(=O)OCC(=O)NC2CCCc3ccccc32)cc1 (stereo unspecified) | -5 | -7 | 3 | 17

# | BJeLR viability | Bead autofluor | RN4220 kill
1 | -3 | 2487 | 16
2 | 9 | 22968* | -3.4
3 | -3 | 5837 | 0.1
4 | / | 19687* | 2.5
5 | 0 | 2037 | 6.2
6 | 4 | 3934 | 4.8
7 | / | / | 19
8 | 7 | 5444 | 3.2
9 | -9 | 3134 | /
10 | -5 | 3932 | 1.6
11 | 3 | 6210 | 1.9
12 | / | 8199 | -4.7

Additional compounds follow:
# | molecule | PrP 5UTR inh | Sa ugtP lethal | Mtb hypoxia rep | Mtb hypoxia rep growth
13 | COc1ccc2ccccc2c1CNc1nnnn1C | -22 | -1 | 9 | 1
14 | O=C1COc2ccc(C(=O)CSc3nnc(Cc4ccccc4)o3)cc2N1 | 0 | 0 | 11 | -1
15 | NC(=NO)c1ccc(Cl)cc1Cl | / | 3 | 0 | 3
16 | COc1cc(Sc2ccc(C)cc2)c(OC)cc1N | -7 | -1 | 1 | 17
17 | O=C1CN(C(=O)COC(=O)c2ccc([N+](=O)[O-])s2)c2ccccc2N1 | -41 | 2 | 11 | 8
18 | CCOc1ccc(N2CC(C(=O)NCc3ccc(F)cc3)CC2=O)cc1 (stereo unspecified) | -26 | 7 | 17 | 4
19 | COc1ccc(C(=O)c2cn[nH]c2-c2ccc(C)cc2O)cc1 | -10 | 9 | 19 | 9
20 | CC(NC(=O)C1CCC1)c1ccc2c(c1)OCO2 (stereo unspecified) | -16 | 3 | 12 | 17
21 | CN(C)C1(CNCC(O)c2ccccc2)CCCCC1 (stereo unspecified) | 3 | 5 | -1 | 8
22 | COC(=O)c1ccc(N)c(CS(=O)(=O)c2ccc(Cl)cc2)c1 | -25 | -3 | 13 | 0
23 | Cc1ccc(O)c(-c2cc(C(=O)Nc3ccc(S(=O)(=O)N4CC(C)OC(C)C4)cc3)[nH]n2)c1 (stereo unspecified) | 2 | -8 | 8 | 14
24 | Cc1ccc(C(=O)Nc2cccc(C(F)(F)F)c2)cc1NC(=O)c1[nH]cnc1C(N)=O | -18 | -1 | 7 | 17

# | BJeLR viability | Bead autofluor | RN4220 kill
13 | -11 | 4613 | 0.9
14 | 3 | ? | 1.3
15 | / | / | -0.8
16 | -8 | 2436 | -2.7
17 | / | 3379 | 8.3
18 | 10 | 9573 | 4.8
19 | -3 | 3551 | 6.3
20 | 4 | 11790 | 3.4
21 | 9 | 3832 | 2.7
22 | 5 | 3886 | -0.9
23 | -1 | 3901 | -1.1
24 | / | 4040 | 2.4

Next section.
# | molecule | PrP 5UTR inh | Sa ugtP lethal | Mtb hypoxia rep | Mtb hypoxia rep growth
25 | O=C(NN=Cc1ccccn1)C(O)c1ccccc1 (stereo unspecified) | / | 9 | 6 | 8
26 | CN1CCN(NC(=O)c2ccc(Cl)cc2Cl)CC1 | -22 | / | / | /
27 | CCOC(=O)c1[nH]c2ccc(OC)cc2c1NC(=O)c1nonc1C | -20 | -6 | / | /
28 | Cc1nnc(SCC(=O)N(C)C2CCS(=O)(=O)C2)n1Cc1ccccc1 (stereo unspecified) | -10 | 2 | 6 | -5
29 | Cc1c(N/C(=N/S(=O)(=O)c2ccc(F)cc2)c2ccccc2)c(=O)n(-c2ccccc2)n1C | 4 | -7 | 7 | 8
30 | CC(C)=CCC/C(C)=C/C(=O)O | 1 | 15 | / | /
31 | CC(CC(=O)NCC1CCCO1)c1ccccc1 (stereo unspecified) | -43 | 10 | 19 | 8
32 | Cc1ccc(C=CC(=O)NCc2ccncc2)cc1 | / | 9 | 1 | -1
33 | COc1ccc(NC(=O)Nc2ncn(Cc3cccc(C(F)(F)F)c3)n2)cc1OC | -14 | 0 | -5 | 20
34 | CN1CCN(C2CCN(Cc3ccc(O)c4ncccc34)CC2)CC1 | -11 | 1 | 4 | -2
35 | CNC(=O)c1ccsc1NC(=O)C1CCN(S(=O)(=O)c2cccs2)CC1 | -17 | -3 | 3 | -5
36 | COc1ccc(CCNC(=O)C2CC(=O)N(c3ccc(C)cc3)C2)cc1OC (stereo unspecified) | -8 | -1 | -8 | 0

# | BJeLR viability | Bead autofluor | RN4220 kill
25 | / | / | 3.6
26 | 0 | 2151 | /
27 | -8 | 4476 | 0.6
28 | 0 | 4143 | 5.0
29 | -10 | 4270 | 1.1
30 | -1 | 4213 | 4.0
31 | 13 | 2069 | 6.1
32 | / | / | 4.9
33 | 2 | 9787 | 2.0
34 | / | 3512 | 3.1
35 | -4 | / | -0.7
36 | -6 | 5257 | 3.0

A run of entries of the results above:
# | molecule | PrP 5UTR inh | Sa ugtP lethal | Mtb hypoxia rep | Mtb hypoxia rep growth
30 | CC(C)=CCC/C(C)=C/C(=O)O | 1 | 15 | / | /
31 | CC(CC(=O)NCC1CCCO1)c1ccccc1 (stereo unspecified) | -43 | 10 | 19 | 8
32 | Cc1ccc(C=CC(=O)NCc2ccncc2)cc1 | / | 9 | 1 | -1

# | BJeLR viability | Bead autofluor | RN4220 kill
30 | -1 | 4213 | 4.0
31 | 13 | 2069 | 6.1
32 | / | / | 4.9

Additional entries
# | molecule | PrP 5UTR inh | Sa ugtP lethal | Mtb hypoxia rep | Mtb hypoxia rep growth
37 | CCOC(=O)C(C)Oc1ncnc2cccc(F)c12 (stereo unspecified) | -18 | 12 | 17 | 9
38 | Cc1ccc(CNC(=O)Nc2ccc(Cl)cc2)cc1 | -39 | 10 | 16 | 4
39 | CCCC(C(=O)NCc1ccco1)N(CC1CCCO1)C(=O)CNS(=O)(=O)c1ccc(F)cc1 (stereo unspecified) | -26 | 13 | 6 | 7
40 | Cc1ccccc1COC(=O)CNC(=O)c1sc2ccccc2c1Cl | -26 | 6 | 13 | 5
41 | COc1ccc(CN(Cc2cccnc2)C(=S)NCCc2ccccc2)cc1OC | -10 | -5 | -2 | 10
42 | CCCNC(=S)N1CCN(CC)CC1 | -17 | 1 | 5 | 0
43 | COc1ccc(C(C(=O)NC(C)(C)C)N(Cc2ccc(F)cc2)C(=O)CCC(=O)Nc2cc(C)on2)cc1 (stereo unspecified) | -21 | 3 | 14 | 0
44 | O=C(Cn1nnc(-c2ccc(F)cc2)n1)Nc1cccc(S(=O)(=O)N2CCCC2)c1 | -18 | 3 | 35* | 78*
45 | CC1(C)CC(=O)c2sc(NS(=O)(=O)c3ccc(F)cc3)nc2C1 | -13 | 2 | 7 | 2
46 | O=C(CSc1nc(-c2ccccc2F)nc2nc[nH]c12)Nc1c(Cl)cc(Cl)cc1Cl | / | 4 | -6 | -6
47 | CCCCC(=O)NNC(=S)NC(=O)C(c1ccccc1)c1ccccc1 | -39 | 0 | -1 | 8
48 | CCCCCCCCCn1cc(C(C)=O)c(=O)[nH]c1=O | -18 | 3 | 8 | 9

# | BJeLR viability | Bead autofluor | RN4220 kill
37 | 3 | 2105 | 5.5
38 | -11 | 5385 | -0.9
39 | -8 | 4159 | 3.6
40 | -6 | 7051 | 1.0
41 | 2 | 9390 | -0.6
42 | 3 | 1954 | 2.9
43 | 3 | 6177 | -2.0
44 | / | 4042 | -0.1
45 | -6 | 3795 | 3.5
46 | -4 | / | 7.9
47 | 3 | 4543 | 23
48 | 1 | 3579 | 5.3

The results go on:
# | molecule | PrP 5UTR inh | Sa ugtP lethal | Mtb hypoxia rep | Mtb hypoxia rep growth
49 | CC1CCN(S(=O)(=O)c2ccc(NC(=O)CN3CCCC(C)C3)cc2)CC1 (stereo unspecified) | -20 | 0 | 12 | 10
50 | Cc1ccc(N2C(=O)c3ccccc3C2Nc2cccnc2)nc1 (stereo unspecified) | -6 | -5 | 11 | 15
51 | Cc1ccc(S(=O)(=O)NCCNc2ccc(Br)c(C)c2)cc1 | -34 | 6 | 11 | 3
52 | CN(C)c1ccc(/C=N/N=C/c2ccccc2O)cc1 | -14 | / | / | /
53 | FC(F)(F)c1ccccc1Nc1nccs1 | -12 | 1 | / | /
54 | COc1ccc(/C=C(\C#N)C(=O)OCC(=O)NCc2ccccc2Cl)cc1 | -7 | 2 | 15 | 5
55 | CC(=O)Oc1ccc(-c2cc3ccccc3oc2=O)cc1 | -43 | 6 | 6 | 4
56 | CCc1cc(C(=O)NCC(c2cccs2)N2CCOCC2)sc1C (stereo unspecified) | -14 | -6 | 0 | 11
57 | COc1ccc(CNC(=O)C2CCN(C(=O)c3ccc(-c4ccccc4)cc3)CC2)cc1 | -17 | 19 | 9 | -1
58 | COc1ccc(Cc2nc3ccc(C(=O)N4CCCC4)cc3o2)cc1OC | -7 | -2 | -1 | 0
59 | CCNc1nc(NCC)nc(Nn2cnnc2)n1 | -15 | 7 | 8 | 4
60 | Cc1cc(C)c(NC(=O)CS(=O)CC(=O)NCC2CCCO2)c(C)c1 (stereo unspecified) | -16 | -4 | 3 | 4

# | BJeLR viability | Bead autofluor | RN4220 kill
49 | 7 | 11939 | 3.6
50 | -2 | 5431 | -12
51 | / | 3720 | 8.6
52 | -2 | 2592 | /
53 | -3 | 4845 | -1.4
54 | -12 | 2746 | 4.2
55 | -7 | / | 2.6
56 | 4 | ? | -1.3
57 | -13 | 3412 | -7.5
58 | 11 | 5136 | 0.7
59 | -18 | 20282* | 1.7
60 | 2 | 8463 | -0.3

(further entries)
# | molecule | PrP 5UTR inh | Sa ugtP lethal | Mtb hypoxia rep | Mtb hypoxia rep growth
61 | N#CC1=C(N)NC(SCc2ccccc2)=C(C#N)C12CCCCC2 | -21 | -2 | 2 | 4
62 | CCN(CC)S(=O)(=O)c1ccc(C)c(NC(=S)N2CCN(c3ccccn3)CC2)c1 | -31 | 5 | -4 | 3
63 | O=C(NCc1nnc(SCC(=O)N2CCCCC2)o1)c1c(F)cccc1Cl | -9 | 4 | 6 | 7
64 | COc1cc(C=NNC(=O)NC23CC4CC(CC(C4)C2)C3)ccc1O | / | -9 | 12 | 7
65 | COc1ccc(C(=O)NC2CCN(C(=S)Nc3cccc(C)c3C)CC2)cc1 | -28 | -3 | -1 | -5
66 | O=C(Nc1nnc(/N=C/c2ccco2)s1)c1ccc(F)cc1 | -33 | / | / | /
67 | CC(C(=O)N1CCCCCC1)c1ccc([N+](=O)[O-])cc1 (stereo unspecified) | -10 | 5 | 20 | 12
68 | Cc1cc(O)cc(O)c1C(=O)Cc1cnn(-c2ccccc2)c1 | -4 | 0 | 5 | 4
69 | Cc1ccccc1-n1c(C)cc(/C=C2\NC(=O)NC2=O)c1C | -21 | -5 | -6 | -1
70 | Cc1occc1C(=O)Nc1c(F)c(F)c(F)c(F)c1F | -6 | 0 | / | /

# | BJeLR viability | Bead autofluor | RN4220 kill
61 | 5 | 9279 | 2.5
62 | -1 | 3728 | 4.5
63 | -9 | 5140 | 2.0
64 | / | / | 4.8
65 | -6 | 10267 | 2.7
66 | 10 | 3236 | /
67 | 9 | 2297 | 2.9
68 | -4 | 8816 | 1.4
69 | -15 | 17422* | 4.2
70 | 5 | 3728 | 1.2

From PubChem BioAssay
